# Screens from PubChem BioAssay.
# Ecoli rRNA inh = inhibits bacterial ribosomal RNA function over humanized ribosomes; GFP signal change (wild-type ribosome), % (test concentration not listed); 350,000 compounds, 1.6% hits; AID 720706; E. coli WT GFP vs humanized-ribosome RFP mutants, fluorescence, 24 h; stronger effect = lower value; DMSO median 0, no signal -100;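 active = significant combined selectivity score with lowered wild-type GFP, culture density cut under 30%, mutant RFP and density less affected; inactive = any of these conditions unmet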; also: one replicate is shown; some compounds called inactive have numbers as strong as hits
# Ecoli rRNA inh OD600 = also measured in Ecoli rRNA inh; calls as there; OD600 change, %; measured here: OD600 growth;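 optical density of the mix in the first replicate; 0 = DMSO median and -100 = no signal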
# Ecoli rRNA inh RFP = second read-out of Ecoli rRNA inh, no call of its own (marks repeat the call); RFP signal change, %; measured here: RFP humanized mutant strains;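 first replicate; 0 = DMSO median and -100 = no signal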
# * = called active by the depositor. These rows are one share of the data; the hit share may differ from the screen's.
# Start of the listing, in advance, 3 compounds:
Ecoli rRNA inh	Ecoli rRNA inh OD600	Ecoli rRNA inh RFP	compound
-4.3	-1.2	-1.1	Cc1noc(C)c1NC(=O)Nc1cccc2c1O[C@@H](CN(C)C(=O)Nc1ccccc1)[C@@H](C)CN([C@H](C)CO)C2=O
0.8	8.7	-1.0	Cc1ccc(CN(C)C[C@@H]2OCc3cn(nn3)CCCC(=O)N([C@@H](C)CO)C[C@H]2C)cc1
-0.6	-8.0	2.4	C[C@@H]1CN([C@H](C)CO)C(=O)Cc2cc(NC(=O)NC3CCCCC3)ccc2O[C@@H]1CN(C)S(=O)(=O)c1ccc(Cl)cc1

# The listing, from the start:
Ecoli rRNA inh	Ecoli rRNA inh OD600	Ecoli rRNA inh RFP	compound
-4.3	-1.2	-1.1	Cc1noc(C)c1NC(=O)Nc1cccc2c1O[C@@H](CN(C)C(=O)Nc1ccccc1)[C@@H](C)CN([C@H](C)CO)C2=O
0.8	8.7	-1.0	Cc1ccc(CN(C)C[C@@H]2OCc3cn(nn3)CCCC(=O)N([C@@H](C)CO)C[C@H]2C)cc1
-0.6	-8.0	2.4	C[C@@H]1CN([C@H](C)CO)C(=O)Cc2cc(NC(=O)NC3CCCCC3)ccc2O[C@@H]1CN(C)S(=O)(=O)c1ccc(Cl)cc1
-2.2	5.4	1.0	COc1ccc(S(=O)(=O)N(C)C[C@H]2Oc3cc(C#CC4CC4)ccc3S(=O)(=O)N([C@H](C)CO)C[C@@H]2C)cc1
-4.3	-4.2	1.5	COc1cc(C)ccc1S(=O)(=O)NC(=O)C1(C)CCN1C(=O)c1ccc(C2CCCCC2)cc1 (stereo unspecified)
1.0	1.8	-4.5	COc1ccc(C#Cc2ccc([C@@H]3[C@H](CO)N4C(=O)CN(C(=O)NC(C)C)C[C@@H]34)cc2)cc1
0.3	2.1	-1.5	O=C(NC[C@H]1[C@@H](c2ccccc2)[C@H](CO)N1C(=O)C1CCC1)NC1CCCC1
0.2	10.3	0.2	C[C@@H]1CCCCO[C@@H](CN(C)C(=O)Cc2ccccc2)[C@H](C)CN([C@@H](C)CO)C(=O)c2cc(NS(C)(=O)=O)ccc2O1
-1.5	1.7	-0.7	C[C@@H]1CCCCO[C@H](CN(C)C(=O)C2CCCCC2)[C@H](C)CN([C@@H](C)CO)C(=O)c2cc(NS(=O)(=O)c3ccc(Cl)cc3)ccc2O1
2.4	-6.2	-0.3	CS(=O)(=O)Nc1ccc2c(c1)[C@H]1C[C@H](CC(=O)N3CCOCC3)O[C@@H](CO)[C@H]1O2
-0.2	0.2	1.6	O=S(=O)(Cc1ccccc1)NCC[C@@H]1CC[C@@H](NS(=O)(=O)c2ccccc2)[C@@H](CO)O1
2.7	7.3	-1.4	CO[C@H]1CN(C)C(=O)c2cc(NS(=O)(=O)c3cn(C)cn3)ccc2OC[C@H](C)NC[C@H]1C
0.3	0.6	-1.2	O=C(c1ccc(F)cc1)N1CCCCN2[C@H](CO)[C@@H](c3ccc(/C=C/c4ccccc4)cc3)[C@@H]2C1
-4.0	-36.2	23.2	CO[C@@H](CN(C)S(=O)(=O)c1cccc(Cl)c1)[C@@H](C)CN([C@H](C)CO)S(=O)(=O)c1ccc(Cl)cc1
4.3	-0.6	-0.1	C[C@H]1CN([C@@H](C)CO)C(=O)c2cccc(NS(=O)(=O)c3cn(C)cn3)c2O[C@@H]1CN(C)Cc1ccc(C(F)(F)F)cc1
4.0	-7.8	0.4	O=C(Nc1ccc(F)cc1)N1C[C@H]2[C@@H](c3ccccc31)[C@@H](CO)N2C(=O)c1ccccc1
2.4	9.9	-2.7	C[C@@H]1CN([C@@H](C)CO)C(=O)c2cc(C#C[C@@H](C)O)cnc2O[C@H]1CN(C)C(=O)CC1CC1
1.9	0.2	-2.1	O=C(O)[C@@H]1[C@@H](CO)[C@@H]2Cn3c(ccc(/C=C/c4ccccc4)c3=O)[C@@H]2N1C(=O)c1cnccn1
-1.4	1.3	3.8	C[C@@H]1CN([C@H](C)CO)C(=O)c2cccc(NC(=O)C3CC3)c2O[C@@H]1CN(C)Cc1ccc(Oc2ccccc2)cc1
-3.0	7.2	1.0	C[C@@H]1CN([C@@H](C)CO)C(=O)c2cc(C#CCc3ccccc3)cnc2O[C@H]1CN(C)C(=O)C1CCC1
-12.2	-25.2	-0.1	O=S(=O)(N[C@H]1CC[C@@H](CCn2cc(-c3cccc(F)c3)nn2)O[C@H]1CO)c1ccc(F)cc1
-9.4	-52.4	-1.7	CCCNC(=O)N1CC[C@@H]2[C@@H](CO)N(C)c3ccc(-c4cccc(OC)c4)cc3[C@@H]21
2.2	10.3	1.1	COc1ccc(S(=O)(=O)N2CC[C@@H]3[C@H]2c2cc(C#Cc4cccc(OC)c4)ccc2N[C@@H]3CO)cc1
-5.3	-5.2	-1.6	COC(=O)[C@]12C[C@H](CC(=O)N3CCCC3)C(=O)N(Cc3ccccc3)C1=C[C@H](C(C)(C)C)O[C@@H]2C
-5.1	-4.9	11.9	COc1ccc2c3c([nH]c2c1)[C@@H](CO)N(Cc1ccc(Cl)cc1)CC31CN(Cc2nccs2)C1
-52.7	-82.5	-18.8	COc1cccc(Nc2nc(C(N)CCc3ccccc3)cs2)n1 (stereo unspecified)
5.1	14.1	16.9	CCN(CC)C(=O)C1=C(C)N(CCCN2CCCC2=O)C(=O)C(CC(=O)NCCCN(C)C)C1 (stereo unspecified)
-2.0	2.9	-0.2	CCN1[C@@H]2c3ccc(/C=C/c4ccccc4)c(=O)n3C[C@H]1[C@H](CO)[C@H]2C(=O)N1CCOCC1
-0.3	-3.8	-2.4	Cc1noc(C)c1NC(=O)Nc1ccc2c(c1)C(=O)N([C@@H](C)CO)C[C@H](C)[C@H](CN(C)S(=O)(=O)c1ccccc1)O2
-3.0	4.7	-4.2	COc1ccc2c3c(n(C)c2c1)[C@@H](CO)N(C(C)=O)CC31CN(C(=O)Nc2ccc(F)cc2)C1
-55.5	-71.7	-5.7	O=C(c1ccc(F)cc1)N1CCCCN2[C@H](CO)[C@@H](c3ccc(-c4ccccc4)cc3)[C@@H]2C1
-1.5	-8.7	-3.1	COC(=O)C[C@H]1CC[C@H]2[C@H](COc3ccc(NC(=O)c4ccc(C(F)(F)F)cc4)cc3C(=O)N2C)O1
-1.7	-25.6	3.5	Cc1ccc(CN2CC(=O)N3[C@H](CO)[C@@H](c4ccc(-c5ccccc5F)cc4)[C@H]3C2)cc1
-13.7*	-12.3*	4.0*	CCC(C(=O)NC1CCCC1)n1c(-c2ccnc3ccccc23)nc2ccccc21 (stereo unspecified)
-4.7	-50.6	27.8	C/C=C/c1ccc2c(c1)O[C@H](CN(C)Cc1ccccc1F)[C@H](C)CN([C@H](C)CO)S2(=O)=O
2.0	-3.0	-0.7	C[C@@H]1CCCCO[C@H](CN(C)S(=O)(=O)c2cn(C)cn2)[C@H](C)CN([C@H](C)CO)C(=O)c2cc(NS(C)(=O)=O)ccc2O1
3.6	-2.2	0.0	CO[C@@H]1CN(C)C(=O)c2cc(NC(=O)C3CC3)ccc2OC[C@@H](C)N(C)C[C@H]1C
2.9	9.4	-3.9	C[C@@H]1CN([C@H](C)CO)C(=O)CCCn2cc(nn2)CO[C@H]1CN(C)C(=O)NC1CCCC1
1.0	5.7	-0.8	Cc1ccc(S(=O)(=O)N(C)C[C@@H]2Oc3ccc(NC(=O)CCC(F)(F)F)cc3C(=O)N([C@@H](C)CO)C[C@@H]2C)cc1
-1.2	-1.4	-2.5	CCCc1cn(CC[C@@H]2CC[C@H](NC(=O)Nc3ccc4c(c3)OCO4)[C@@H](CO)O2)nn1
4.7	9.2	1.7	COc1ccc(S(=O)(=O)N[C@H]2CC[C@@H](CCNC(=O)CN3CCOCC3)O[C@H]2CO)cc1
6.9	7.1	-1.5	C[C@H](CO)N1C[C@H](C)[C@@H](CN(C)C)Oc2ccc(NC(=O)Cc3cn(C)c4ccccc34)cc2CC1=O
4.7	3.8	1.0	C[C@@H]1CN([C@H](C)CO)C(=O)c2cc(NC(=O)C3CC3)ccc2O[C@@H]1CN(C)C
-11.1	-39.1	27.9	O=S(=O)(c1ccccc1F)N1CC[C@@H]2[C@@H](CO)Nc3ccc(-c4ccccc4F)cc3[C@@H]21
2.8	-7.6	-0.7	COc1ccc(NC(=O)N(C)C[C@@H]2Oc3ccc(NC(=O)Cn4cnnn4)cc3C(=O)N([C@H](C)CO)C[C@H]2C)cc1
3.5	5.0	-1.7	COc1ccc(NC(=O)N(C)C[C@@H]2Oc3ncc(-c4cccnc4)cc3C(=O)N([C@H](C)CO)C[C@@H]2C)cc1
2.3	4.9	1.8	COC(=O)[C@@]1(Cc2ccc(OC)cc2)[C@H]2c3cc(C(=O)N4CCCC4)n(Cc4ccc(S(C)(=O)=O)cc4)c3C[C@H]2CN1C(=O)c1ccccc1
-2.4	-6.1	1.6	CC=Cc1ccc2n(c1=O)C[C@H]1[C@H](CO)[C@@H](C(=O)N3CCN(C)CC3)N(Cc3ccccc3OC)[C@@H]21 (mixture of isomers)
-1.1	-2.6	0.1	O=S(=O)(N[C@H]1CC[C@H](CCn2cc(C3CC3)nn2)O[C@@H]1CO)c1ccc(Cl)cc1
3.4	-4.3	2.5	CN(C[C@H]1[C@@H](c2ccccc2)[C@@H](CO)N1C(=O)C1CC1)C(=O)c1ccccn1

# Further structures:
Ecoli rRNA inh	Ecoli rRNA inh OD600	Ecoli rRNA inh RFP	compound
-3.1	14.4	-0.9	C[C@H](CO)N1C[C@H](C)[C@@H](CN(C)S(=O)(=O)c2ccccc2)Oc2ccc(NC(=O)C3CCCCC3)cc2CC1=O
-29.2	-60.8	26.2	O=C(c1ccc(F)cc1)N1CC(=O)N2[C@H](CO)[C@H](c3ccc(C#CC4CCCC4)cc3)[C@H]2C1
-8.8	-7.9	4.4	CC1(C(=O)NS(=O)(=O)c2ccc(C#N)cc2)CCN1C(=O)C1(c2ccc(Cl)cc2)CCC1 (stereo unspecified)
-8.6	-9.6	8.9	C[C@H](CO)N1C[C@H](C)[C@H](CN(C)C(=O)Nc2cccc3ccccc23)Oc2ncc(-c3ccc(F)cc3)cc2C1=O
-0.4	-1.0	-0.4	C[C@@H]1CN([C@@H](C)CO)C(=O)CCCn2cc(nn2)CO[C@@H]1CN(C)S(=O)(=O)c1cccc(F)c1
10.3	9.5	2.8	COCCN(CCOC)Cc1cc(=O)oc2cc(OC)c(Cl)cc12
-3.7	-3.7	4.2	CCC(=O)N1C[C@H](C)[C@H](OC)CN(C)C(=O)c2cc(NC(=O)Nc3cccc(F)c3)ccc2OC[C@@H]1C
2.0	-4.5	1.6	C[C@H](CO)N1C[C@H](C)[C@H](CN(C)CC2CCCCC2)Oc2ccc(NS(=O)(=O)c3ccccc3)cc2CC1=O
2.9	13.6	-5.8	O=C(NCc1cccc(C(F)(F)F)c1)c1csc([C@@H]2C[C@H](O)[C@@H](CO)O2)n1
0.3	-0.7	-2.3	O=C(c1[nH]c(C(F)(F)F)nc1-c1ccccc1)N1CCCN(Cc2ccc(F)cc2)CC1
-4.4	0.1	0.1	O=C(C[C@H]1C[C@@H]2c3cc(NC(=O)c4ccc5c(c4)OCO5)ccc3O[C@@H]2[C@@H](CO)O1)NCC1CC1
-2.5	5.2	-2.6	N#C[C@@H]1[C@H](c2ccccc2)[C@@H](CO)N1C(=O)c1cc(Cl)cc(Cl)c1
1.9	-1.1	1.8	COCC(=O)N(C)C[C@@H]1Oc2cc(C#Cc3ccccc3)ccc2S(=O)(=O)N([C@@H](C)CO)C[C@@H]1C
-5.0	12.0	6.2	COc1ccc(CN(C)C[C@H]2OCCCC[C@H](C)Oc3ccc(NC(=O)NC(C)C)cc3C(=O)N([C@H](C)CO)C[C@H]2C)cc1
5.6	6.7	19.2	CC(C)(C)Cc1c(-c2ccc(C#N)cc2)nc2ccc(Cl)cn12
-0.9	-7.1	0.6	CO[C@@H]1CN(C)C(=O)c2cc(NC(=O)Nc3ccccc3)ccc2OC[C@H](C)N(C(=O)CN(C)C)C[C@H]1C
-6.2	3.5	-5.2	Cc1cccc(S(=O)(=O)N2C[C@@H](O)COC[C@H]3O[C@H](CC(=O)Nc4ccccc4)CC[C@@H]32)c1
1.8	13.3	-0.4	C[C@H](CO)N1C[C@H](C)[C@@H](CN(C)C(=O)CCCN(C)C)OCCCC[C@H](C)Oc2ccc(NC(=O)C3CCCCC3)cc2C1=O
12.1	11.9	-0.7	COc1cccc2sc(=NC(=O)CS(=O)(=O)c3ccccc3)n(C)c12
-1.4	2.8	-0.7	O=C(N[C@H]1CC[C@H](CCn2cc(-c3ccccn3)nn2)O[C@H]1CO)c1ccncc1
-4.0	-6.5	4.5	CCCC#Cc1ccc2c(c1)O[C@@H](CN(C)S(C)(=O)=O)[C@H](C)CN([C@H](C)CO)S2(=O)=O
-13.5	-6.7	1.8	Cc1ccc2nc(-c3cccc(Br)c3)c(Cc3ccccn3)n2c1
8.9	16.8	4.2	O=C(c1ccco1)N1CCN(C2CN(Cc3ccc(F)cc3)S(=O)(=O)C2)CC1 (stereo unspecified)
5.0	3.0	1.4	CS(=O)(=O)Nc1ccc2c(c1)[C@@H]1C[C@H](CC(=O)NC3CCCC3)O[C@H](CO)[C@@H]1O2
8.9	11.6	0.4	O=C(CC1SCCNC1=O)NCc1ccccc1 (stereo unspecified)
3.5	-2.6	4.2	CO[C@H](CN(C)C(=O)c1ccccc1F)[C@H](C)CN([C@H](C)CO)S(=O)(=O)c1ccc(F)cc1
13.2	7.4	2.8	O=C(NCc1ccccc1)[C@@H]1CCCN1C(=O)[C@H]1CCCN1C(=O)c1ccc(F)cc1F

# One compound at a time, from the list above.
# CO[C@@H]1CN(C)C(=O)c2cc(NC(=O)Nc3ccccc3)ccc2OC[C@H](C)N(C(=O)CN(C)C)C[C@H]1C is entered as Ecoli rRNA inh: -0.9; Ecoli rRNA inh OD600: -7.1; Ecoli rRNA inh RFP: 0.6
# O=C(N[C@H]1CC[C@H](CCn2cc(-c3ccccn3)nn2)O[C@H]1CO)c1ccncc1 is entered as Ecoli rRNA inh: -1.4; Ecoli rRNA inh OD600: 2.8; Ecoli rRNA inh RFP: -0.7
